# Compound activity as filed in PubChem.
# StopGo FLuc: lowers the firefly signal of an FMDV 2A StopGo reporter | actives 0.23% (n = 120,000) | Potency, µM (series often up to 57.5 µM), for inactives: at the top dose signal change, negative = less light | AID 1745856 | HEK cells with a luciferase reporter of 2A StopGo recoding; active = well fitted falling curve with a large enough effect; inconclusive = small, poorly fitted or top-dose-only effect; inactive = no such curve, though single readings can be large or run the other way; also: nearly all actives have a fitted effect of over 60% in size; overnight with compound
# StopGo RLuc: FMDV 2A StopGo reporter, Renilla signal. Potency, µM (titrated, usually from 57.5 µM), for inactives: at the highest dose signal change, negative = less light. actives 0.32% (n = 120,000). AID 1745857. HEK cells with a luciferase reporter of 2A StopGo recoding; active means well fitted falling curve with a large enough effect; inconclusive means small, poorly fitted or top-dose-only effect; inactive means no such curve, though single readings can be large or run the other way; also: nearly all actives have a fitted effect of over 55% in size; overnight with compound
# * marks the source's active call; other numbers are inactive results; ? = inconclusive; & = joins results of further samples; [ ] = dose if it differs, or a comment. % is scaled to controls: 0 for no effect and ±100 for the full control effect; potency is read from the fitted curve at half-maximal effect. Not all compounds are listed, so the mix of outcomes need not match the whole.
mol,StopGo FLuc,StopGo RLuc
Cc1ccccc1CS(=O)Cc1ccccc1F (stereo not given),13%,23%
O=C(Nc1ccc(F)c(Cl)c1)c1ccc(Cl)cc1N1CCCC1=O,0%,48%[activator]
CCOc1cccc(C2c3c(oc4ccccc4c3=O)C(=O)N2c2nc(C)c(C(=O)OC)s2)c1 (stereo not given),-8%,-8%
COc1ccc(-c2cc(C(F)(F)F)nc(SCC(=O)N(C)Cc3ccccc3)n2)cc1,-24%,9%
COc1cccc(CNCCc2ccc(F)cc2)c1,65%[activator],23%
COC(=O)c1cc(-c2ccc(C)cc2)nc2ccc(Cl)cc12,0%,-4%
O=C(Cc1ccccc1)NCc1cccs1,56%[activator],-11%[1.06 µM]
C[C@H]1COc2c(C3(N)CC3)c(F)cc3c(=O)c(C(=O)O)cn1c23,-7%[11.5 µM],-4%
Cc1ccc2nc(-c3cccc(NC(=O)c4cccc5c(Cl)cccc45)c3)oc2c1,14%,-13%
O=C(CC(c1ccc(F)cc1)N1Cc2ccccc2C1=O)NCc1ccc(F)cc1 (stereo not given),4%,55%[activator]
CC(C)(C)c1ccccc1NC(=O)c1ccccc1F,23%,6%
Cn1cc(S(=O)(=O)c2ccc(F)cc2)c(=O)c2ccccc21,-5%,24%
CCNc1c(NS(=O)(=O)c2c(C)noc2C)c(=O)oc2ccccc12,27%,6%
O=C(CS(=O)(=O)c1cccc2nsnc12)N1CCN(c2cccc(C(F)(F)F)c2)CC1,-29%,-23%
C=C(Br)CNC1CCCCC1,6%,6%

# Of the compounds above, these have a carbonyl joined to an NH by a bond outside any ring.
mol,StopGo FLuc,StopGo RLuc
O=C(Nc1ccc(F)c(Cl)c1)c1ccc(Cl)cc1N1CCCC1=O,0%,48%[activator]
O=C(Cc1ccccc1)NCc1cccs1,56%[activator],-11%[1.06 µM]
Cc1ccc2nc(-c3cccc(NC(=O)c4cccc5c(Cl)cccc45)c3)oc2c1,14%,-13%
O=C(CC(c1ccc(F)cc1)N1Cc2ccccc2C1=O)NCc1ccc(F)cc1 (stereo not given),4%,55%[activator]
CC(C)(C)c1ccccc1NC(=O)c1ccccc1F,23%,6%

# Continuation:
mol,StopGo FLuc,StopGo RLuc
CCOc1ccccc1Nc1sc(C(=O)c2ccccc2)c(N)c1C(=O)NCCc1ccccc1,-7%,24%
COc1ccc(OC)c(CC(C(=O)Nc2ccc(F)cc2)c2nn[nH]n2)c1 (stereo not given),-4%,-3%
CCOc1ccc(NC(=O)NC(C)c2c(-n3cccc3)sc3c2CCN(CC)C3)cc1 (stereo not given),-7%,12%
COc1ccc(OC)c(NC(=O)CSc2nc(-c3ccccc3C)nc3cc(=O)[nH]n23)c1,-4%,-3%
COc1cc(CNC(=O)c2cnc3c(-c4cccc(C)c4)c(C)nn3c2C)cc(OC)c1OC,-20%,2%
CN(C)CCNC(=O)C1CCCN(c2nc(Cl)nc3nc[nH]c23)C1 (stereo not given),-4%,-5%
CCN1CCN(c2oc(-c3ccco3)nc2C#N)CC1,-7%,6%
COc1ccc(/C=C/C(=O)Oc2ccccc2Cl)cc1,9%,-7%
CC(=O)Nc1c(I)cc(I)c(C(=O)O)c1I,-11%[11.5 µM],-11%
CC(C)OCCCn1c(=O)c2ccccc2n2c(-c3cc(Cl)ccc3O)nnc12,-15%,0%
Cc1cccc(NC(=O)NC(=O)CN(C)Cc2ccccc2)c1C,77%[activator],11%
CCOc1cc(-c2ccc(C)cc2)nc2ccc(C(=O)N3CCCC3)cc12,24%,139%[activator]
Cc1ccc(N/C(N)=N/c2nc(C)cc(C)n2)cc1,24%,10%
CCOC(=O)c1sc(NC(=O)N2CCN(CC)CC2)c(C(=O)OCC)c1C,10%,5%
O=C(NCc1ccccc1)NC1COc2ccccc2C1 (stereo not given),14%,9%

# (further entries)
mol,StopGo FLuc,StopGo RLuc
Cc1ccc(CNC(=O)CN(c2cccc(C)c2C)S(=O)(=O)c2ccccc2)cc1,4%,21%
Cc1ccc2oc(C(=O)N(Cc3ccc(Cl)cc3)C3CCS(=O)(=O)C3)cc(=O)c2c1 (stereo not given),1%,0%
Cc1ccc(/C=C(/C#N)C(=O)Nc2cccc3ncccc23)cc1,2%,17%
Nc1cc(N)nc(SCC(=O)Nc2cc(F)ccc2F)n1,12%,13%
CCOC(=O)c1sc(NC(=O)c2ccc(S(=O)(=O)N3CCCCCC3)cc2)cc1C,0%,33%[activator]
CCc1nc2c(cnn2-c2ccc(Cl)cc2)c(=O)n1-c1ccc(OC)c(Cl)c1,-11%,-12%
O=C(Nc1ccc2cc[nH]c2c1)C(=O)NC1CCCCCC1,179%[activator],3%
Cc1ccc(OCCOC(=O)c2n[nH]c(=O)c3ccccc23)cc1,2%,6%
COCCn1cnc2c1c(=O)n(CC(=O)Nc1ccccc1OC(F)F)c(=O)n2Cc1ccccc1,7%,15%
CCCNc1nc(-c2ccc(Br)cc2)cs1,99%[activator],?
CCn1ccnc1C(O)c1cccc(OC)c1OC (stereo not given),51%[activator],24%
CC(Nc1cccc(N2CCCC2=O)c1)c1nc(C(C)(C)C)no1 (stereo not given),0%,-15%
COc1ccc(NC(=O)C2(C#N)CCCC2)cc1,6%,-14%
CCOc1ccccc1NC(=O)Cc1noc2ccc(C)cc12,-4%,4%
CC(C)COC(=O)NC(C)C(=O)O (stereo not given),3%,-5%

# Next section:
mol,StopGo FLuc,StopGo RLuc
CC(C)CNc1nc(-c2ccc(S(=O)(=O)N3CCCC3)cc2)cs1,?,22µM*
O=C(NCc1ccc(-c2nc3ccccc3s2)o1)c1ccccc1Br,-61%,?
COc1cc(OC)c(NC(=O)N2CC3CCCN3c3ccccc32)cc1Cl (stereo not given),1%&-16%,?
COc1ccccc1C(=O)Nc1ccc2oc(-c3ccccc3F)nc2c1,174%[activator],6%
CCn1c(C)cc(C(=O)CSc2n[nH]c(C3CC3)n2)c1C,95%[activator],9%
Cc1ccc2c(c1)-c1c(cnn1CC(=O)N(C)c1ccccc1Cl)CO2,-2%,25%
COCCn1c2c(c(=O)[nH]c1=O)C(c1ccc(C(=O)O)cc1)C1=C(N2)c2ccccc2C1=O (stereo not given),7%,-3%
CCN(CC)CCSc1nnc2c3cc(F)ccc3n(C)c2n1,14%,3%
CCCNc1c(NC(=O)Nc2cccc(Cl)c2)c(=O)oc2ccccc12,8%,11%
Cc1ccc(NC(=O)c2cc3c(=O)n(Cc4cccnc4)ccc3nc2C)cc1F,20%,-14%
Cc1ccccc1-n1ccnc1SCC(=O)c1ccccc1,113%[activator],39%[activator]
CN(C)CCOC(c1ccc(Cl)cc1)c1ccccn1 (stereo not given),-16%[11.5 µM],-16%
FC(F)(F)c1ccc(Cl)c(N/N=C/c2c(Cl)cccc2Cl)c1,7%,10%
CCOc1ccc(Nc2nc(SC)nc(-c3ccccc3)c2C#N)cc1,4%,-12%
COc1ccc(C)cc1-n1cnc2cc(C(=O)NC3CCCCCC3)ccc21,-13%,134%[activator]

# Five entries out of the list, ordered by molar mass, ascending:
mol,StopGo FLuc,StopGo RLuc
CN(C)CCOC(c1ccc(Cl)cc1)c1ccccn1 (stereo not given),-16%[11.5 µM],-16%
CCOc1ccc(Nc2nc(SC)nc(-c3ccccc3)c2C#N)cc1,4%,-12%
FC(F)(F)c1ccc(Cl)c(N/N=C/c2c(Cl)cccc2Cl)c1,7%,10%
COc1ccc(C)cc1-n1cnc2cc(C(=O)NC3CCCCCC3)ccc21,-13%,134%[activator]
O=C(NCc1ccc(-c2nc3ccccc3s2)o1)c1ccccc1Br,-61%,?

# Next part
mol,StopGo FLuc,StopGo RLuc
CCc1ccccc1Nc1nn2c(=O)c3ccc(C(=O)NCCc4ccccc4)cc3nc2s1,0%,0%
O=C(COc1ncnc2ccccc12)Nc1c(Cl)cc(Cl)cc1Cl,-4%,-8%
COc1ccccc1N1CCN(CCCNC(=O)c2cnn(-c3ccc(C)c(C)c3)c2C2CCN(C(=O)OC(C)(C)C)CC2)CC1,-28%,-19%
Cc1nn(C)c2nc(C(C)C)cc(C(=O)N3CCN(c4nccs4)CC3)c12,-9%,-8%
COc1ccc(NC(=O)CSc2nc(O)c(C/C=C/c3ccccc3)c(=O)[nH]2)cc1,-4%,-19%
COc1ccc(-c2nnc3ccc(SCc4ccco4)nn23)cc1,72%[activator],56%[activator]
CCN(C(=O)Cn1nc(Cc2ccncc2)c2ccccc2c1=O)c1cc(C)ccc1C,1%,6%
CCOc1ccccc1NC(=O)Cn1c(=O)n(-c2ccc(C)c(C)c2)c(=O)c2c(C)c(C(=O)N(C)C)sc21,-16%,-4%
CC(C)n1c(SCC(=O)c2ccc(F)cc2)nc2c(sc3ccccc32)c1=O,-12%,1%
O=C1O[C@H]([C@@H](O)CO)C(O)=C1O,-11%[11.5 µM],-11%
CNc1c(NC(=O)C2CC(=O)N(c3ccc(C)cc3)C2)c(=O)oc2ccccc12 (stereo not given),16%,11%
COc1cc(OC)c(NC(=O)c2oc3ccc4c(c3c2C)C(=O)CC(C)(C)O4)cc1Cl,-10%,2%
O=C(c1ccc2c(c1)N(Cc1cccc(Cl)c1)C(=O)c1ccccc1S2(=O)=O)N1CCN(Cc2ccccc2)CC1,?,-1%
Cc1ccc(CNC(=O)c2cc3c(s2)-c2ccccc2SC3)cc1,0%,43%[activator]
COc1ccc(N(C(C)C(=O)NCc2cccnc2)S(C)(=O)=O)cc1 (stereo not given),-1%,-2%

# (list continues)
mol,StopGo FLuc,StopGo RLuc
O=C(NC1CCCCCCC1)c1ccncc1,77%[activator],8%
COc1cccc(C2CCCN2Cc2cc(=O)oc3cc(C)ccc23)c1 (stereo not given),4%,7%
COc1ccc(CNC(=O)CS(=O)(=O)Cc2nc(-c3cccc(OC)c3)oc2C)cc1,-10%,2%
CCc1nnc(NC(=O)CSc2nc3c([nH]c4ccccc43)c(=O)n2-c2cc(C)cc(C)c2)s1,14%,8%
COc1cc(/C=C(\C#N)c2nc3ccccc3[nH]2)ccc1OCc1ccc(C)cc1,166%[activator],-10%
Cc1ccc(C(=O)NCc2coc(-c3cccs3)n2)c(C)c1,12%,13%
COC(=O)c1cc(NC(=O)c2ccc(-c3ccc(Cl)cc3Cl)o2)cc(C(=O)OC)c1,-20%,6%
CCOc1cc(C(=O)N(Cc2nc(-c3ccc(C)cc3)no2)C(C)C)cc(OCC)c1OCC,-7%,-13%
N#Cc1cccc(C(=O)NC2CCCN(Cc3ccccc3)C2)c1 (stereo not given),-6%,-8%
Cc1nc(N2CCOCC2)c2c(C(=O)N3CCN(c4ccccc4)CC3)c(C)oc2n1,-10%,2%
O=C1CC(c2ccccc2)c2c(n3c(nc4ccccc43)[nH]c2=O)N1 (stereo not given),3%,-2%
O=C(Cn1nnc(-c2ccc(F)cc2)n1)N1CCOCC1,2%,-10%
CN1CCN(c2ccc(NC=C(C#N)C#N)cc2)CC1,78%[activator],6%
CCc1ccc(C(=O)Nc2sc(C)c(C)c2C#N)cc1,135%[activator],12%
CCc1ccc(S(=O)(=O)NCc2ccc3c(c2)CCN3C(=O)c2ccc(C)cc2)cc1,-30%,41%[activator]

# A few values from the entries so far.
# In StopGo RLuc, COC(=O)c1cc(NC(=O)c2ccc(-c3ccc(Cl)cc3Cl)o2)cc(C(=O)OC)c1 has the entry 6%
# In StopGo FLuc, CCc1nnc(NC(=O)CSc2nc3c([nH]c4ccccc43)c(=O)n2-c2cc(C)cc(C)c2)s1 has the entry 14%
# In StopGo FLuc, CCc1ccc(C(=O)Nc2sc(C)c(C)c2C#N)cc1 has the entry 135%[activator]

# (continued)
mol,StopGo FLuc,StopGo RLuc
CCc1c(CN2CCN(c3cccc(C)c3C)CC2)csc1C,-10%,-6%
COc1ccc(N2CC(NC(=O)c3c(F)cccc3Cl)CC2=O)cc1OC (stereo not given),8%,9%
O=C(CN1CCN(C(=O)c2cc3ccccc3[nH]2)CC1)N1CCCCCC1,50%[activator],-1%
COc1ccc2c(C)c(CCC(=O)NCc3ccccc3OC)c(=O)oc2c1,-2%,-7%
COc1ccccc1N(C)S(=O)(=O)c1ccc(C(=O)Nc2cccc(C)c2C)cc1,-6%,-5%
Cc1ccc(CSc2ncc(Cl)c(C(=O)Oc3ccc(F)cc3)n2)cc1,4%,-6%
CCCNC(=S)NNC(=O)C(C)C,-2%,1%
CCCCOC(=O)c1ccc(Nc2nnc(-n3nc(C)cc3C)c3ccccc23)cc1,-7%,-18%
O=C(CSc1nc(=O)[nH]c2c1CCC2)Nc1cc(C(F)(F)F)ccc1Cl,-17%,2%
Cc1ccc(CNCCC2=CCCCC2)o1,0%,10%
Cc1ccc(C)c(NC(C)C(=O)N(C)Cc2cccc(F)c2)c1 (stereo not given),-3%,-3%
CCOC(=O)C(O)(c1ccc(N(C)C(=O)Nc2ccc(Cl)c(Cl)c2)cc1)C(F)(F)F (stereo not given),12%,-3%
Cc1ccc2nc(/C(C#N)=C\c3ccc(O)cc3)[nH]c2c1,0%,-8%
CN1C(=O)c2ccccc2Sc2ccc(NC(=O)NCc3ccc(Cl)cc3)cc21,-6%,-25%
CC(NC(=O)c1cccs1)C12CC3CC(CC(C3)C1)C2 (stereo not given),0%,25%

# 4 of these compounds, set out differently:
# Every second line gives: StopGo FLuc, StopGo RLuc
Cc1ccc2nc(/C(C#N)=C\c3ccc(O)cc3)[nH]c2c1
→ 0%, -8%
Cc1ccc(C)c(NC(C)C(=O)N(C)Cc2cccc(F)c2)c1 (stereo not given)
→ -3%, -3%
CC(NC(=O)c1cccs1)C12CC3CC(CC(C3)C1)C2 (stereo not given)
→ 0%, 25%
CCCNC(=S)NNC(=O)C(C)C
→ -2%, 1%
